Bioassay records (PubChem)
RE007 growth inh – qHTS Assay for Inhibitors of the HIV-1 protein Vpr. Potency, µM (doses to about 92.2 µM), for inactives: at the top dose activity change, negative = less growth. S. pombe RE007 Vpr strain, BacTiter-Glo ATP luminescence, 24 h; control for the full effect not named in the record. 0.21% of 360,000 active; active = well fitted falling curve with a large enough effect; inconclusive = small, poorly fitted or top-dose-only effect; inactive = no such curve, though single readings can be large or run the other way;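 also: % is scaled to controls: 0 for no effect and ±100 for the full control effect; nearly all actives have a fitted effect of over 50% in size; the assay follows cell death caused by Vpr and the record does not say whether a fall means rescue or toxicity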
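Fission yeast RE007 carrying one integrated HIV-1 vpr copy, seeded at OD 0.01 in PMG+AL medium with 23 nL pinned compound. Grown 24 h at 30 degrees; viability read by BacTiter-Glo luminescence after 5 min.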
Cruzain inh noDet – qHTS Assay for Promiscuous and Specific Inhibitors of Cruzain (without detergent); 2.3% of 200,000 active; Potency, µM, for inactives: max response, negative = inhibition, usual class: inhibitors; AID 1476, 2009; Cruzipain (Trypanosoma cruzi), P25779; purified cruzain, Z-FR-AMC fluorescence, no detergent; active = well fitted curve in the direction sought with a large enough effect; inconclusive = small, poorly fitted or top-dose-only effect, or another doubt; inactive = no such curve, though single readings can be large; an effect the other way counts as inactive or inconclusive;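 also: plate controls were enzyme without inhibitor for no effect and buffer without enzyme for full effect; nearly all actives have a fitted effect of over 40% in size; top concentration of the series not given in the record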
Target sequence (P25779 123-467 limits assumed): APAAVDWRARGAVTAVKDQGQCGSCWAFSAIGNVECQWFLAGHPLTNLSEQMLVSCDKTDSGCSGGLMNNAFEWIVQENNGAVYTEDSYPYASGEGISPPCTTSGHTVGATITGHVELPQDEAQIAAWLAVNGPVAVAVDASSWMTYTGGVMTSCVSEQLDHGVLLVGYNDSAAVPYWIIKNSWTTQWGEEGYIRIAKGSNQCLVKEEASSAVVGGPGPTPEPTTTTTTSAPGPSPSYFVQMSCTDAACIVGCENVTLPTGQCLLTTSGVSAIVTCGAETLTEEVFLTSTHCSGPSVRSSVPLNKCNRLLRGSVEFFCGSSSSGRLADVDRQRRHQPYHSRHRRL
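Purified cruzain at 1.5 nM, pre-incubated 15 min with compound at room temperature in 100 mM sodium acetate pH 5.5, 5 mM DTT, 0.00005% Triton X-100. Reaction started with 2 uM Z-FR-AMC; AMC fluorescence increase over 60 s gives rate.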
Lassa entry inh – qHTS for Inhibitors of binding or entry into cells for Lassa Virus; Lassa virus pseudotype entry inhibition, cell reporter; control for the full effect not named in the record; AID 540256, 2011; Potency, µM (doses to about 37.9 µM), without a hit: at the highest dose activity change, negative = inhibition, hits mostly inhibitors; 1.2% of 300,000 active; active means well fitted inhibition curve with a large enough effect; inconclusive means small, poorly fitted or top-dose-only effect, or effect the other way; inactive means flat fitted curve, though single readings scatter; tested in HEK293 cells; also: % is scaled to controls: 0 for no effect and ±100 for the full control effect; nearly all actives have a fitted effect of over 50% in size; luciferase read-out
StopGo reporter – High Throughput Screening for Foot and Mouth Disease Virus Antivirals. Potency, µM (series often up to 57.9 µM), for inactives: at the top dose signal change, negative = less light. AID 1159524, 2015. 1.2% of 410,000 active. human cells with a luciferase reporter of 2A StopGo recoding; control for the full effect not named in the record; active = well fitted falling curve with a large enough effect; inconclusive = small, poorly fitted or top-dose-only effect; inactive = no such curve, though single readings can be large or run the other way; tested in HEK293T cells; also: % is scaled to controls: 0 for no effect and ±100 for the full control effect; nearly all actives have a fitted effect of over 45% in size; luciferase light after 4 h
Cruzain inh Det – qHTS Assay for Promiscuous and Specific Inhibitors of Cruzain (with detergent). Cruzipain (Trypanosoma cruzi), P25779. purified cruzain, Z-FR-AMC fluorescence, 0.01% Triton. Potency, µM, for inactives: max response, negative = inhibition, most hits filed as inhibitors. 0.43% of 200,000 active. AID 1478, 2009; active = well fitted curve in the direction sought with a large enough effect; inconclusive = small, poorly fitted or top-dose-only effect, or another doubt; inactive = no such curve, though single readings can be large; an effect the other way counts as inactive or inconclusive;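 also: plate controls were neutral wells for no effect and buffer without enzyme for full effect; nearly all actives have a fitted effect of over 40% in size; top concentration of the series not given in the record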
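In this qHTS format, compounds are incubated with 1.5 nM cruzain for 15 min at room temperature before 2 uM Z-FR-AMC is added. Release of AMC is followed at 360/450 nm, and progress is taken as the 60 s fluorescence difference.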
SARS PLpro yeast – qHTS of Yeast-based Assay for SARS-CoV PLP; S. cerevisiae expressing SARS-CoV PLpro, growth rescue; control for the full effect not named in the record; Potency, µM (highest dose often 32.9 µM), for inactives: top-dose activity, positive = growth rescue; 0.19% of 330,000 active; also: 0% is about no effect; nearly all actives have a fitted effect of over 55% in size; growth read by luminescence after 48 h
MARV entry inh – qHTS for inhibitors of binding or entry into cells for Marburg Virus; Potency, µM (titrated, usually from 37.8 µM), without a hit: at the highest dose activity change, negative = inhibition, actives largely listed as inhibitors; 1.8% of 300,000 active; AID 540276, 2011; Marburg virus pseudotyped entry inhibition, cell reporter; control for the full effect not named in the record; about a third of the inactives were read at about 46 µM; active = well fitted inhibition curve with a large enough effect; inconclusive = small, poorly fitted or top-dose-only effect, or effect the other way; inactive = flat fitted curve, though single readings scatter; tested in HEK293 cells; about a fifth of its hits are not listed in these tables; also: % is scaled to controls: 0 for no effect and ±100 for the full control effect; luciferase read-out
NS1 inh – qHTS Assay for Inhibitors of Influenza NS1 Protein Function; Potency, µM (titrated, usually from 46.1 µM), inactives show top-dose activity, positive = more growth; S. cerevisiae slowed by influenza A NS1, growth recovery by OD600; AID 2326, 2010; 0.4% of 270,000 active; also: actives are rising curves; nearly all actives have a fitted effect of over 50% in size
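In this qHTS, NS1 from influenza A is expressed in budding yeast, where it slows growth. Cells are switched from glucose to 2% galactose medium (pH 6.0, -URA), treated with compound, and growth recovery is read at OD600.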
Starred values were filed as active, the others as inactive; u = inconclusive; x = no result given; & = joins results of further samples; [ ] = remark or other dose. Unless noted, calls follow the shape of the dose curve; as a rule, active means well fitted rising curve with a large enough effect; inconclusive means small, poorly fitted or top-dose-only effect; inactive means no such curve, though single readings can be large or run the other way. Potency is read from the fitted curve at half-maximal effect. Random draw from the library; any-hit rate near 4.7%.

Every second line gives: StopGo reporter, Cruzain inh noDet, NS1 inh, RE007 growth inh, SARS PLpro yeast, Cruzain inh Det, Lassa entry inh, MARV entry inh
> O=C(CCC(=O)Nc1ccccc1Cl)NN=C1CCCC1
→ 6%, x, 17%, -4%, 13%, x, 20%[46.1 µM], -21%[46.1 µM]
> CCCCCCC(=O)OCC(=O)c1ccc2c(c1)NC(=O)CO2
→ -18%, x, x, -7%, -3%, x, u, 13%
> COc1ccc2nc(-c3cccc(N)c3)[nH]c2c1
→ 0%, -20%, 15%, -9%, -23%, -15%, 11µM*, 10µM*
> Cc1ccc(NC(=O)Cn2c(=O)n(-c3ccccc3)c(=O)c3c4c(sc32)CCCC4)cc1
→ -27%, -7%, x, x, x, -1.8%, 23%[46.1 µM], u
> COc1cccc(NC(=O)Cn2cc(C#N)c3ccccc32)c1
→ 0%, 1%, 18%, -13%, -1%, -3.8%, 7%, 5%
> COC(=O)c1c(-c2cccs2)csc1NC(=O)c1ccc(Cl)cc1
→ 28%, -10%, x, x, x, -8.2%, u, 4%[46.1 µM]
> O=C1CC(Nc2ccc(N3CCOCC3)cc2)C(=O)N1c1ccccc1F (stereo unspecified)
→ -10%, -2%, 0%, -6%, -4%, -1.5%, x, x
> COc1ccc(OC)c2[nH]c(=O)c(CCNC(=O)C3CCCCC3)cc12
→ -23%, -6%, -3%, 0%, -7%, 0.4%, -3%, x
> O=C(O)c1ccccc1-c1ccccc1C(=O)Nc1cccc2ccccc12
→ -4%, 1%, 4%, 2%, 0%, 3.1%, 8%, 20%
> O=C(c1ccc(CS(=O)Cc2ccc(Cl)cc2)o1)N1CCN(c2cccc(Cl)c2)CC1 (stereo unspecified)
→ -26%, x, -4%, 11%, 18%, x, u, u
> CC(C)(C)n1nnnc1C(c1cccs1)N1CCN(C(=O)c2ccco2)CC1 (stereo unspecified)
→ 5%, -9%, -10%, -12%, 2%, 3.1%, 3%, 18%[46.1 µM]
> CCC(=NCCOc1ccc(Cl)cc1)c1c(O)n(C)c(=O)n(C)c1=O
→ 25µM*, u, -35%, 1%, -9%, -0.5%, 2%, -24%&-24%
> COc1cc(-c2nnc(NC(=O)CCS(=O)(=O)c3ccccc3)o2)cc(OC)c1OC
→ -8%, x, x, 2%, 2%, x, -12%, -27%
> CN(CCc1ccccn1)C1CC(=O)N(c2ccc(Cl)cc2)C1=O (stereo unspecified)
→ 0%, -1%, -142%, 3.2µM*, -46%, 2.0%, -4%, u
> Cn1c(=O)[nH]c(=O)c2c1nc(N1CCCC1)n2CCO
→ -5%, x, 17%, 2%, 7%, x, 2%[46.1 µM], 4%[46.1 µM]
> COc1ccccc1C(=O)NC(C)c1nc2ccccc2[nH]1 (stereo unspecified)
→ -30%, -13%, -7%, 12%, 5%, -3.0%, -2%, 4%
> CCOC(=O)C(C)Oc1cccc2c(=O)n(CC(=O)N3CCCc4ccccc43)ccc12 (stereo unspecified)
→ -28%, 13%, 16%, 2%, 14%, -3.8%, x, x
> COC(=O)c1ccc(CSc2nnc3c(n2)[nH]c2ccccc23)cc1
→ -12%, x, 4%, 17%, 0%, x, -2%, 8%[46.1 µM]
> O=C(Nc1c(Cl)cccc1Cl)c1ccc(-c2ccccc2)cc1
→ x, -9%, -4%, 6%, -2%, 0.6%, 13%, -3%
> CCOC(=O)CNC(=O)c1cccs1
→ -2%, -4%, 5%, -4%, 2%, -0.8%, -2%, 4%
> COc1cc(NS(=O)(=O)c2ccc(NS(=O)(=O)c3ccc(C)cc3)cc2)nc(OC)n1
→ 28%, x, 6%, 13%, 0%, x, x, 9%[46.1 µM]
> Cc1sc(NC(=O)CN(Cc2ccc(F)cc2)C(=O)C(C)C)c(C(N)=O)c1C
→ x, -1%, 4%, 6%, 2%, 3.5%, u, -28%
> CCC(NC(=O)c1cc(COc2ccc(F)c(F)c2)on1)c1ccncc1 (stereo unspecified)
→ 7%, x, -4%, -12%, -10%, x, x, x
> COc1nc(N/N=C/c2ccccc2F)nc(N2CCCCC2)n1
→ 2%, 5%, 10%, 9%, 3%, -4.0%, -3%, 16%
> CN(CC(=O)Nc1ccc(F)cc1)CC(=O)Nc1ccc(F)c(F)c1F
→ -14%, x, x, -6%, -2%, x, 6%, -6%
> Cc1cccc(NC(=S)N=Nc2c(O)n(C)c3ccc(S(=O)(=O)N4CCOCC4)cc23)c1
→ -16%, 13%, u, x, -2%, -2.7%, u, u
> CCOC(=O)N1CCN(C(=O)c2ccc(S(=O)(=O)Nc3ccc(C)cc3)cc2)CC1
→ -25%, x, x, -17%, -4%, x, u, u
> CS(=O)(=O)NCc1ccc(C(=O)O)cc1
→ -3%, x, x, 8%, 1%, x, 15%, 11%[46.1 µM]
> O=C(Nc1ccncc1)c1ccc(F)cc1
→ -14%, 4%, -28%, 6%, 1%, -0.6%, -1%, 8%
> CCc1ccc(/C=N/n2c(COc3ccccc3)n[nH]c2=S)cc1
→ -25%, x, 1%, 16%, -3%, x, x, 0%
> CC(C)OCCCn1c(=O)c2ccccc2n2c(CCC(=O)N3CCN(c4ccccn4)CC3)nnc12
→ -21%, x, -10%, -7%, 1%, x, x, x
> CCOC(=O)NC(=O)C(=CNc1cccc(OC)c1)C(=O)NC(=O)OCC
→ -12%, -3%, -9%, 12%, 1%, -0.7%, -4%, -1%
> CCCCS(=O)(=O)NC1=NCN(CCO)CN1
→ -7%, 7%, 7%, -22%, 2%, 5.4%, -19%, -8%&-8%
> CCOc1ccccc1CNC(=O)C1CCN(S(=O)(=O)c2ccc3c(ccn3C)c2)CC1
→ -4%, -22%, x, x, x, -4.4%, -4%[46.1 µM], x
> O=C(CSc1nnc(Cc2cc(=O)[nH]c(=O)[nH]2)n1-c1ccccc1)N1CCCc2ccccc21
→ -5%, -17%, 14%, 3%, -5%, 0.2%, 1%, 22%
> CN(C(=O)c1ccccc1OCc1ccc(F)cc1)c1c(N)n(Cc2ccccc2)c(=O)[nH]c1=O
→ -20%, x, x, 13%, 0%, x, 4%, 8%
> CC(=O)OCC1OC(n2c(-c3ccc(Cl)cc3)ccc(C#N)c2=S)C(OC(C)=O)C(OC(C)=O)C1OC(C)=O (stereo unspecified)
→ -25%, x, x, 9%, x, x, 0%[46.1 µM], 28%
> CC(C)[C@@H]1NC(=O)N(c2ccc(Oc3ccccc3)cc2)C1=O
→ -10%, 13%, -30%, 6%, -3%, 5.9%, 21%, 18%
> O=C(Nc1ccccc1C(=O)N1CCN(Cc2ccccc2)CC1)c1ccccn1
→ u, -10%, -11%, -10%, -4%, 2.7%, 0%, u
> Cc1cc(C)c2nc(/N=C(\N)NC(=O)c3ccccc3)nc(C)c2c1
→ -6%, x, 2%, 1%, -1%, x, 14%, u
> CC(=O)N1CCN(C(=O)c2ccc(C)c(S(=O)(=O)N3CCCCC3)c2)CC1
→ 9%, x, x, -3%, 0%, x, -5%, -9%
> CCCOc1ccc(C2CC(=O)Nc3c2c(=O)n(C)c(=O)n3C)cc1OC (stereo unspecified)
→ -12%, -2%, x, x, x, -1.4%, 1%[46.1 µM], 8%[46.1 µM]
> CCc1nc(NCC(C)C)c(C#N)c2c1COC(C)(C)C2
→ -10%, -14%, 8%, 18%, 1%, 11%, 7%, 9%&9%
> Cc1coc2c1c(C)cc1oc(=O)c(CC(=O)N[C@@H](CC(C)C)C(=O)O)c(C)c12
→ -4%, x, 6%, 5%, 0%, x, x, x
> O=C(Oc1ccc2ccccc2c1Cl)N1CCCCCC1
→ -9%, -12%, -17%, -28%, -57%, -2.4%, u, u
> CCOC(=O)N1C(=O)[C@@](c2ccc(Cl)cc2)(C(C)C)N1C(=O)OCC
→ u, x, -139%, 3%, -25%, x, x, x
> O=C(CSC1=NNC(c2ccccn2)S1)Nc1ccccc1 (stereo unspecified)
→ 4%, x, -110%, 11%, u, x, x, x
> CCOC(=O)c1nc2nc(-c3cccs3)cc(C(F)(F)F)n2n1
→ -11%, -5%, 11%, 9%, 4%, -14%, -3%, -8%
> Cc1ccc(CCC(=O)Nc2ncc(Cc3cc(Cl)ccc3Cl)s2)o1
→ -1%, 25µM*, -3%, -18%, 10%, -1.2%, u, 0.65µM*
> CN(CCOc1ccc(Br)cc1)CC(O)COc1ccc(C#N)cc1 (stereo unspecified)
→ -10%, x, -4%, 0%, -1%, x, u, u
> COc1cc(CN2CCC(C(=O)NC3CCCC3)CC2)cc(Br)c1O
→ 3%, -2%, -19%, -5%, 0%, -9.6%, 4%, 1%&1%
> CCc1cccc(CC)c1NC(=O)CN1C(=O)C(=O)c2ccccc21
→ -9%, u, x, x, x, -2.1%, -25%[46.1 µM], -4%[46.1 µM]
> CN(C)c1ccc(C=C2C(=O)OC3(CCCC3)OC2=O)cc1
→ -9%, x, -34%, -8%, 0%, x, u, 14%[46.1 µM]
> Cc1cc(OC(C)C(=O)Nc2sc3c(c2C(N)=O)CCCC3)ccc1Cl (stereo unspecified)
→ 6%, -1%, x, x, x, -1.1%, 17%[46.1 µM], -4%[46.1 µM]
> CN(C(=O)CCS(=O)(=O)c1cc2c(cc1Cl)NC(=O)CO2)C1CCCCC1
→ 0%&-17%, 10%, 14%, 6%, 1%, -10%, 0%[46.1 µM], x
> CC(C)(C)c1ccc(-n2ncc3c2CCCC3NC(=O)CN2CCCCC2=O)cc1 (stereo unspecified)
→ -21%, x, -14%, 6%, 13%, x, -14%[46.1 µM], -2%[46.1 µM]
> Cc1cccc(Cn2c(SCCN3CCOCC3)nc3c2c(=O)n(C)c(=O)n3C)c1
→ -28%, -3%, -18%, 3%, 0%, -1.1%, x, x
> O=C(CN1C(=O)c2cccc3cccc1c23)N1CCN(c2ccccc2)CC1
→ 8%, 7%, -6%, 7%, 3%, 3.6%, -13%, 3%
